Screens: PubChem BioAssay, National Center for Advancing Translational Sciences (NCATS)
Rango-impB inh: qHTS Assay for Inhibitors of Rango (Ran-regulated importin-beta cargo) - Importin beta complex formation; Rango CFP/YFP FRET sensor + importin beta, 45 min; Importin subunit beta-1 (Homo sapiens), Q14974; AID 540263, 2011; Potency, µM (titrated, usually from 92.2 µM), without a hit: at the highest dose inhibition of complex formation; hit rate 0.031% among 340,000; active = rising FRET ratio curve, often small or poorly fitted; inconclusive = mostly compound fluorescence or quenching in the first reads; inactive = flat curves in all reads;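 further: potency means the concentration at half of the fitted maximal effect; 0% = DMSO wells and 100% = buffer wells lacking importin beta; nearly all actives have a fitted effect of over 15% in size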
Target sequence (Q14974 whole entry, looked up): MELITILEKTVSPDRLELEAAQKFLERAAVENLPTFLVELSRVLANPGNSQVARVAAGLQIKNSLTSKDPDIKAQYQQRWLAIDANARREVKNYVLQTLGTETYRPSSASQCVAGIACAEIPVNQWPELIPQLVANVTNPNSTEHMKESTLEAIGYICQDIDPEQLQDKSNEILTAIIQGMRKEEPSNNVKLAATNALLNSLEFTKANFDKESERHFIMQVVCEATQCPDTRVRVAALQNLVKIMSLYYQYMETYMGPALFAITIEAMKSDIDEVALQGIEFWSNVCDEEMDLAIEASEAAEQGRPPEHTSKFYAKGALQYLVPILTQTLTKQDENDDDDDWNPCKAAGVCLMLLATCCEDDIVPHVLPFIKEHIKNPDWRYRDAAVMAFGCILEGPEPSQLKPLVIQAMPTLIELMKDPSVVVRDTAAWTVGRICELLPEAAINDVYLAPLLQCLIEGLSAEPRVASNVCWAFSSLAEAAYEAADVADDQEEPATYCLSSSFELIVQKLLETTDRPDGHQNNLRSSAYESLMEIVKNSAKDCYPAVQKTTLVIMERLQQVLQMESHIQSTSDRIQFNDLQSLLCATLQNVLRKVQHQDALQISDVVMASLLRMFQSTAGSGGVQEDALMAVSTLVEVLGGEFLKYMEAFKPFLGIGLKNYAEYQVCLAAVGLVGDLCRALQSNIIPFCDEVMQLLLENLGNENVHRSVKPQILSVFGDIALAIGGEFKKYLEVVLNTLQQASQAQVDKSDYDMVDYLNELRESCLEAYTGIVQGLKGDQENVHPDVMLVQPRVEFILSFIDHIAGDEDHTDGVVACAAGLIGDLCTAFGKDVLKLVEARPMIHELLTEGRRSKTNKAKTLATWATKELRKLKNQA
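FRET biosensor Rango (snurportin 1 IBB between N-terminal EYFP and C-terminal Cerulean), 50 nM in PBS/1 mM DTT/0.02% Tween-20/0.1% BSA, preincubated 5 min RT with compound; 0.125 microM importin beta added, 45 min RT, CFP/YFP FRET ratio read.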
GLA inh pH 4.5: qHTS Assay for Inhibitors of Human alpha-Galactosidase at pH 4.5; purified enzyme, 4-MU-alpha-Gal fluorescence, pH 4.5; activity change, negative = inhibition, % at 105 µM; 230,000 tested, under 10 active; Alpha-galactosidase A (Homo sapiens), P06280; inconclusive = small, poorly fitted or top-dose-only inhibition, or a rising curve; inactive = flat fitted curve, though single readings scatter; no compound was filed as active;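 further: 0% = full activity with enzyme and -100% = basal without enzyme; dose as in the result columns while the protocol names 77 µM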
Rango release inh: qHTS Assay for Inhibitors of RanGTP induced Rango (Ran-regulated importin-beta cargo) - Importin beta complex dissociation | hit rate 0.071% among 340,000 | Biochemical FRET Rango-importin beta, RanGTP-induced dissociation | Potency, µM (doses to about 46.1 µM), without a hit: at the highest dose activity change, negative = inhibition; active means falling FRET ratio curve, often poorly fitted, with flat reads before Ran was added; inconclusive means other falling curves, or compound fluorescence or quenching; inactive means flat or rising ratio curve;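 further: potency means the concentration at half of the fitted maximal effect; % of control where 0% means no effect; nearly all actives have a fitted effect of over 45% in size; -100% = wells without RanGTP and RCC1; the record marks most hits as doubtful in a second field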
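Rango (0.1 uM)–importin beta (0.25 uM) complex; RanGTP-RCC1 trigger; 45 min RT; CFP/YFP FRET read.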
miR-21 reporter: qHTS Assay for Modulators of miRNAs and/orActivators of miR-21 | HeLa miR-21 FLuc reporter, luciferase, 48 h | Potency, µM (top dose mostly 38.3 µM), without a hit: top-dose reporter change, positive = more light | 340,000 tested, under 10 active | AID 2288, 2010; active = well fitted rising curve with a large enough effect; inconclusive = small, poorly fitted or top-dose-only effect; inactive = no such curve, though single readings can be large or run the other way;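 further: % of control where 0% means no effect; miR-21 action dims this reporter so a rising signal means less miR-21 action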
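HeLa cells stably expressing CMV-driven firefly luciferase with a downstream miR-21 binding sequence, endogenously expressing miR-21, were treated with titrations (up to about 40uM final) for 48 hours at 37 degree Celsius. Luciferase luminescence was read after lysis.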
Starred values were filed as active, the others as inactive; ? = inconclusive; . = not tested or not shown; [ ] = another dose, or the depositor's remark. A portion of the library; rates above refer to the full screens.

Rango-impB inh | GLA inh pH 4.5 | Rango release inh | miR-21 reporter | SMILES
0.1% | 3 | 7% | 3% | CCOC(=O)c1nnn(-c2nonc2N)c1CNC(C)C
-0.1% | . | -25% | . | Cc1nnc(SCC(=O)Nc2cc(S(=O)(=O)N3CCCC3)ccc2Cl)n1C1CC1
? | . | -4% | -18% | Fc1cccc(Nc2ncnc3sccc23)c1
-2.1% | -1 | 11% | -5% | Cc1cccc(N2C(S)=C(C#N)C(=O)NC2c2cccs2)c1 (stereo not given)
-7.9% | . | 13% | . | CCOC(=O)C1=C(C)Nc2ccccc2N=C1NC(=O)c1cc(C)on1
-4.6% | 4 | 1% | -3% | COc1ccccc1/C=C/CN1CCN(Cc2ccc(F)cc2)C(CCO)C1 (stereo not given)
0.6% | -2 | 7% | 1% | Cc1ccc(CSC2=NCCN2C(=O)c2ccc(S(=O)(=O)N(C)C)cc2)cc1
1.8% | 4 | -5% | 0% | O=C(NCc1ccccc1)N1CCC(CO)(CCc2ccccc2)CC1
-2.3% | 5 | -2% | 2% | CCOC(=O)N1CCC(N2CCN(S(=O)(=O)c3ccc(NC(C)=O)cc3)CC2)CC1
? | -4 | -21% | 1% | COC(=O)c1c(N(S(C)(=O)=O)S(C)(=O)=O)sc2c1CCN(c1ncc(C(F)(F)F)cc1Cl)C2
6.9% | 3 | -14% | -15% | O=C1C=Cc2ccccc2/C1=C/c1[nH]c(=O)[nH]c1O
1.2% | -2 | -10% | -1% | O=C(Oc1cccc2cccnc12)c1ccc(Br)o1
-3.8% | . | 20% | 0% | COCc1c(C(=O)N/N=C/c2ccco2)nnn1-c1nonc1N
-0.7% | 1 | 1% | 2% | CC(C)C1C(C#N)=C(N)Oc2n[nH]c(C(C)(C)C)c21 (stereo not given)
. | 1[21.1 µM] | . | 4% | CC(CCc1ccccc1)NC(=O)CCCCCNc1nc(=S)[nH]c2ccccc12 (stereo not given)
2.1% | -4 | 2% | -4% | CC(C)CC(N=C1NC(C)(C)Cc2ccccc21)C(=O)O (stereo not given)
0.1% | 6 | 3% | -15% | COc1ccc2c(c1)c(CC(=O)Nc1cc(C)ccc1C)c(C)n2C(=O)c1ccc(Cl)cc1
0.5% | . | 1% | . | Cc1cc(=O)[nH]c(NC(=O)Cc2ccccc2)n1
0.1% | 4 | -8% | 1% | Cc1ccc(-c2ccccc2[C@@H]2C[C@H]3CN(C)C(=O)[C@]34CCCN24)o1
-1.1% | 2 | -9% | -11% | COc1ccc(OC)c(S(=O)(=O)N(C)CC(=O)Nc2ccccc2OC)c1
3.3% | 1 | 6% | -1% | C/C(=N/OCO/N=C(\C)c1ccc(F)cc1F)c1ccc(F)cc1F
-0.1% | . | 12% | -12% | CC(C)(C)C(=O)NCCCNc1ccc([N+](=O)[O-])cc1
-2.9% | -1 | 1% | 21% | FC(F)(F)c1nc(N2CCCC2)ncc1-c1nnnn1-c1ccccc1
-0.4% | . | 6% | 1% | COc1ccc(CN(CC(=O)NCCC(C)C)C(=O)CCC(=O)Nc2nccs2)cc1
5.9% | -12 | -4% | 5% | Fc1cccc(NC(=S)N2CCn3cccc3C2c2cccnc2)c1 (stereo not given)
-0.8% | 0 | -15% | -2% | CC1=CC(C)(C)NC(=S)N1c1ccccc1
-0.2% | 0 | 0% | -51% | CN1N=C2c3ccccc3CCC2C1c1ccc(F)cc1 (stereo not given)
3.9% | . | 1% | 0% | COc1ccc(OC)c(NC(=O)c2ccc3c(c2)C(=O)N(CC2CCCO2)C3=O)c1 (stereo not given)
2.5% | . | -8% | 3% | CC[C@@]1(c2ccccc2OC)C(=O)N(C(=O)OC)N1C(=O)OC
1.0% | 4 | 13% | 16% | CC1CN(S(=O)(=O)c2ccc(C(=O)Nc3sccc3C(N)=O)cc2)CC(C)O1 (stereo not given)
3.7% | . | 2% | 1% | CCN1CCCC1CNc1ccc(S(C)(=O)=O)cc1[N+](=O)[O-] (stereo not given)
-0.2% | 0 | 1% | -35% | CCCn1c(C)cc(C(=O)COc2ncnc3sccc23)c1C
-5.1% | 10 | 1% | 0% | CCCCOc1ccc(N(CC(=O)NCC2CCCO2)C(=O)CCC(=O)Nc2nccs2)cc1 (stereo not given)
0.1% | -1 | 1% | -27% | O=C(N/N=C\C=C\c1ccc2c(c1)OCO2)c1ccc(F)cc1
-1.5% | . | 14% | . | COCC(=O)N(C)[C@H]1C[C@H]2c3cc(Oc4ccccc4C)ccc3CCN2C(=O)[C@H]1[C@H](C)O
-0.1% | . | -15% | 7% | CCOC(=O)c1c(CS(=O)(=O)c2ccccc2)n(C)c2cc(Br)c(O)cc12
? | 4 | ? | 0% | CC1(C)Cc2c(c(-c3ccco3)[nH]c(=O)c2C#N)CS1
-1.8% | -2 | -11% | 0% | OCCN1CCN(CC(O)COCc2ccc3c(c2)OCO3)CC1 (stereo not given)
-1.8% | . | 0% | 1% | O=C(c1ccccc1)C1CCN(C(=O)c2c(F)cccc2F)CC1
-1.1% | 0 | 13% | -15% | COc1ccccc1NC(=S)NNC(=O)c1cc(C)n(C)n1
-1.4% | -1 | -1% | -5% | CC[C@H](C)[C@H](NC(N)=O)C(=O)NCCc1ccc(OC)cc1
-0.2% | . | 0% | . | COc1ccc(N=C2c3ccccc3-c3ccc([N+](=O)[O-])cc32)cc1
-2.0% | -6 | -7% | -30% | O=C(c1cc2ccccc2oc1=O)N(Cc1cccs1)Cc1ccccc1Cl
4.3% | . | 19% | 1% | O=C(CSc1nnc(CNC(=O)c2c(F)cccc2Cl)o1)NC1CCCCC1
-2.7% | -7 | 10% | -4% | C=CCOc1ccc(CNn2nnnc2N)cc1
-5.7% | 2 | 4% | -15% | NS(=O)(=O)c1ccc(NC(=S)NC2CCCCC2)cc1
4.6% | . | 18% | . | CC1CCC2(CC1)NC(=O)N(CC(=O)NCc1ccc(Cl)cc1)C2=O (stereo not given)
3.2% | 5 | 15% | 2% | COC(=O)c1ccc(NC(=O)c2cc(-c3ccccn3)nc3ccccc23)cc1
0.1% | . | 8% | -3% | Cc1ccc(-n2nc(C)c(C(=O)N3CCN(C(=O)c4ccco4)CC3)c2-n2cccc2)cc1
-1.0% | 6 | -12% | -5% | CCOC(=O)N1CCN(S(=O)(=O)c2ccc(F)c(C(=O)Nc3cccc(C)c3C)c2)CC1

Continued.
Rango-impB inh | GLA inh pH 4.5 | Rango release inh | miR-21 reporter | SMILES
1.0% | . | 11% | 3% | O=C(CCCN1C(=O)C(c2ccccc2)Oc2cccnc21)NCCc1ccc(Cl)cc1 (stereo not given)
-3.3% | . | 30% | -29% | CN(C(=O)c1cc(COc2ccc(F)c(F)c2)on1)C1CCOC1 (stereo not given)
? | 3 | -11% | -3% | O=C(CSc1nc(O)cc(=O)n1-c1ccccc1)Nc1nc2ccccc2s1
-0.4% | 0 | 1% | 22% | Cc1nn(C)c(C)c1/C=C(/C(=O)C(C)(C)C)n1cncn1
2.5% | . | 17% | . | Cc1cnc(C(=O)OCC(=O)c2ccc(C3CCCCC3)cc2)cn1
2.7% | 8 | -6% | 30% | CC(C)(C)C(=O)NC(=S)NNC(=O)C(c1ccccc1)c1ccccc1
1.3% | . | -11% | 25% | O=C(NCCCO)c1c(O)c2cccc3c2n(c1=O)CCC3
2.9% | 1 | 0% | 1% | COc1ccc(OC)c(NC(=O)C(CCS(C)(=O)=O)NC(C)=O)c1 (stereo not given)
-0.4% | . | 0% | . | CC1(C)O[C@@H]2[C@H](O1)[C@@H](CO)O[C@H]2n1ccc(=O)[nH]c1=O
-2.0% | -1 | 13% | -8% | O=C(CSc1nnc(-c2ccccc2)o1)N1CCOCC1
0.5% | 2 | -2% | -36% | CCc1ccc(NC(=S)Nc2cc(C(=O)O)ccc2N2CC3CC(C2)c2cccc(=O)n2C3)cc1 (stereo not given)
0.5% | . | -4% | -4% | CCNC(=S)N(CCN(CC)CC)Cc1cc2cc3c(cc2[nH]c1=O)OCO3
-0.5% | -8 | -8% | -16% | CCCNC(=S)Nc1ccc(Nc2ccccc2)cc1
-0.3% | -10 | -14% | -12% | Cc1ccc(Nc2nc(N)nc(CN3CCc4ccccc4C3)n2)cc1
-1.3% | . | 10% | . | COc1ccc(CCNC(=O)CSC2=NS(=O)(=O)c3cc(Cl)ccc3N2)cc1OC
-2.1% | . | -6% | 1% | CC1CN(CC(=O)NCc2ccc(Cl)cc2)CC(C)O1 (stereo not given)
7.5% | -6 | -13% | -27% | c1ccc(-c2nn3cnnc3c3ccccc23)cc1
-2.8% | -2 | 6% | 0% | CCn1nc(C(=O)N2CCN(Cc3ccc4c(c3)OCO4)CC2)c2ccccc2c1=O
? | 4 | ? | 1% | COc1cc(/C=C(\C#N)C(=O)Nc2ccc3c(c2)OCCO3)ccc1O
-0.6% | -4 | -4% | 2% | CN(CC(=O)Nc1cccc(F)c1)C(=O)CCCc1cccs1
? | . | -14% | -4% | CCn1c(SCC(=O)Nc2ccc(C)cc2)nc2sc3c(c2c1=O)CCN(C)C3
0.6% | . | -8% | . | CON(C)C(=O)CC1(CN(Cc2ccccc2)C(=O)OC(C)(C)C)CCCCC1
-0.2% | 0 | 0% | -7% | CCNS(=O)(=O)c1cccc(C(=O)c2c(C)cc3ccccn23)c1
4.4% | . | -7% | 2% | O=C(NCCN1CCOCC1)c1ccc2c(c1)N(Cc1ccc(F)cc1)C(=O)c1ccccc1S2(=O)=O
-0.1% | . | -3% | -8% | COc1ccc(C(=O)N/N=C/c2ccccc2OC(=O)c2ccccc2)cc1
-0.4% | -26 | 25% | -22% | Cn1c(=O)[nH]c(=O)c2c1nc(SCC(O)CO)n2Cc1ccccc1Cl (stereo not given)
-2.7% | . | 5% | 8% | O=C(Cn1cc(C(=O)C(F)(F)F)c2ccccc21)Nc1ccccc1F
4.4% | -16 | 0% | -2% | COc1cccc(CNC(=O)CC(NC(C)=O)c2ccccc2)c1 (stereo not given)
1.3% | -2 | 15% | 7% | O=C(CSc1nnnn1-c1ccc(F)cc1)NNC(=O)c1ccco1
5.0% | 0 | 0% | -7% | S=c1[nH]nc(-c2ccc(Br)cc2)n1Cc1ccco1
-14% | -3 | ? | 15% | CCN(c1ccc(NS(=O)(=O)c2cc(Cl)ccc2Cl)cc1)C(C)C
3.0% | . | 1% | 1% | COc1ccc(CNC(=O)c2cc(=O)c3ccc(C)c(C)c3o2)cc1
-2.4% | . | -3% | . | CC[C@]12c3[nH]c4ccccc4c3CCN1C(=O)C(CC(=O)NCCCOC)C[C@@H]2C(=O)N1CCN(C(=O)C2CC2)CC1 (stereo not given in full)
4.1% | . | 7% | -15% | Cc1ccc(C(=O)CNc2ccc(C)cc2C)cc1
1.9% | . | -8% | -33% | O=C(Nn1cnc2ccccc2c1=O)c1ccc(Br)cc1
-0.4% | -7 | -18% | -7% | CCOc1ccccc1Oc1ccc(C(F)(F)F)cn1
-1.7% | 0 | -3% | 0% | COCCNC(=O)CN(c1ccc(OC)c(OC)c1)S(=O)(=O)c1ccc(C)cc1
4.3% | . | -7% | . | COc1ccc(CCNC(=O)COC(=O)c2cnc(Cl)c(Cl)c2)cc1

Reformatted: four of the compounds above.
structure: Fc1cccc(Nc2ncnc3sccc23)c1
- Rango-impB inh: ?
- GLA inh pH 4.5: .
- Rango release inh: -4%
- miR-21 reporter: -18%

structure: Cc1cccc(N2C(S)=C(C#N)C(=O)NC2c2cccs2)c1 (stereo not given)
- Rango-impB inh: -2.1%
- GLA inh pH 4.5: -1
- Rango release inh: 11%
- miR-21 reporter: -5%

structure: CCOC(=O)C1=C(C)Nc2ccccc2N=C1NC(=O)c1cc(C)on1
- Rango-impB inh: -7.9%
- GLA inh pH 4.5: .
- Rango release inh: 13%
- miR-21 reporter: .

structure: COc1ccccc1/C=C/CN1CCN(Cc2ccc(F)cc2)C(CCO)C1 (stereo not given)
- Rango-impB inh: -4.6%
- GLA inh pH 4.5: 4
- Rango release inh: 1%
- miR-21 reporter: -3%
